# Compound activity: PubChem BioAssay, several laboratories
# Mtb betalactam: beta-lactam sensitization of Mtb H37Rv; inhibition, % at 25 µM; actives 0.27% (n = 330,000); M. tuberculosis H37Rv growth with meropenem, percent inhibition; hits of this screen are not shown here;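 active = about 74% or more and at least 40 points above the plate without the antibiotic, then above 30% in a dose series; inconclusive = first-round hits that could not be retested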;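 note: growth measured after seven days incubation then overnight dye step; 0% = bacteria only wells and 100% = bacteria with antibiotic; twin plates without the antibiotic show which effects depend on it; some results filed as inactive read as strong as hits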
# YopH inh: blocks Yersinia enterocolitica YopH tyrosine phosphatase. actives 0.16% (n = 140,000). inhibition, %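 (about 10 µM by stock and volumes)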. fluorescence Ex485/Em525;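 active = inhibition of 50% or more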;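 note: controls were vehicle for no effect and minimum signal wells for full effect; inactives centre near -20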
# Arbovirus inh: arbovirus infection inhibition; arbovirus infection cell-based antiviral screen; inhibition, % at 10 µM; actives 0.37% (n = 200,000);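 active = inhibition from about 30%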;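 note: bluetongue infection of BSR cells; cell survival read as ATP light after 72 h; 0% = infected wells without compound and 100% = uninfected wells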
# Mtb H37Rv: M. tuberculosis H37Rv growth inhibitors, H37Rv strain (AID 1626); inhibition, % at 10 µM; hits with a dose series show IC50 in µM; actives 0.95% (n = 220,000); M. tuberculosis H37Rv growth inhibition; higher % means a stronger effect;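 active = confirmed in a dose series; inconclusive = inhibition above 80% but not taken into the dose series; inactive = below 80% or under 30% at every dose of the series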;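 note: bacteria incubated seven days before Alamar blue readout; 0% = bacteria only wells and 100% = bacteria with antibiotic wells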
# RecA intein inh: inhibitors of M. tuberculosis RecA intein splicing | P9WHJ3 | cell-free RecA intein splicing, fluorescence | inhibition, %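 (about 9 µM by stock and volumes)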 | actives 0.75% (n = 290,000) | AID 2221; in the data active = inhibition above about 30%; inconclusive = no clear call, values can overlap the other calls;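 note: 0% = vehicle wells and 100% = reference inhibitor control wells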
# Target sequence (P9WHJ3 whole entry, looked up): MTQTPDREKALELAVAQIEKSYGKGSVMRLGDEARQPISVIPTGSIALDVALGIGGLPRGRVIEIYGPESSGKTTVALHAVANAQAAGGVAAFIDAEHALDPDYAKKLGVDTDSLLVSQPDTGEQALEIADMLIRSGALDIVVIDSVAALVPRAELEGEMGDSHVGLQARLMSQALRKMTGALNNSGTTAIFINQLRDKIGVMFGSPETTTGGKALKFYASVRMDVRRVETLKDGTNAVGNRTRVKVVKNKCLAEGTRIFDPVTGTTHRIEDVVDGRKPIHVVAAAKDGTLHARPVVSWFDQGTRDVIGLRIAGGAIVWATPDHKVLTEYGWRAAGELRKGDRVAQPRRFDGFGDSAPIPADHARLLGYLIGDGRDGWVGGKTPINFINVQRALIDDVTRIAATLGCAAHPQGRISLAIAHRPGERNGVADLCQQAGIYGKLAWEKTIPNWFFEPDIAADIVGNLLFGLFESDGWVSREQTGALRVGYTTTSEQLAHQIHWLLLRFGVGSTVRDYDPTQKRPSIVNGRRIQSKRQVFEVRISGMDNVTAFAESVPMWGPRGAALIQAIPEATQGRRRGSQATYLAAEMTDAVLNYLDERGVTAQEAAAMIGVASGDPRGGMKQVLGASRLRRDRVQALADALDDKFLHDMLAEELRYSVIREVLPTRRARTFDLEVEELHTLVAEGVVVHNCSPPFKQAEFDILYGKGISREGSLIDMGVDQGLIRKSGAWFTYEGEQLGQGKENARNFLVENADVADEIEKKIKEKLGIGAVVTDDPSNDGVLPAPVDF
# Arbovirus inh repeat: second read-out of Arbovirus inh, no call of its own (marks repeat the call); inhibition, %; measured here: 10K subset replicate screen; many hits read low in the repeat;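 first of two repeat runs on a subset; 0% = infected and 100% = uninfected wells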
# * hit, by the source's call; u = inconclusive; x = no result given. These rows are one share of the data; the hit share may differ from the screen's.
SMILES,Mtb betalactam,YopH inh,Arbovirus inh,Mtb H37Rv,RecA intein inh,others
COc1ccccc1N1CCN(C(=O)c2cccc3c(=O)c(C)c(-c4ccccc4)oc23)CC1,0,0,0,11%,0.8,
Cc1ccc(NC(=O)c2ccccc2OCc2ccc([N+](=O)[O-])cc2)nc1,4,x,-13,6%,1.2,
NC(=O)/C(=N\OC(=O)c1ccco1)c1nc(-c2ccc(Br)cc2)cs1,99,-14,44*,79%,13,
CC1CCc2c(C(=O)Nc3ccc(OC(F)(F)F)cc3)csc2C1 (configuration not stated),5,-25,3,x,-2.2,
COc1ccc(C(=O)C2=NN(C(C)=O)CC2c2ccco2)cc1 (configuration not stated),-1,x,-7,x,x,
CCCOc1ccc(N2C(=O)CC(N3CCC(c4nc5ccccc5o4)CC3)C2=O)cc1 (configuration not stated),-9,x,6,5%,0.9,
COC(=O)C1=C(C)N(Cc2cccnc2)C(=O)/C1=C\c1cccs1,-5,x,-3,1%,2.1,
CC(=O)N1CCc2ccc(S(=O)(=O)Nc3ccccc3Cl)cc21,-10,x,9,3%,-0.7,
CCC(=O)N(C1=C(NC)C(=O)c2ccccc2C1=O)C(C)C,5,x,7,2%,45*,
CCc1c(C)nc(SC/C=C/c2ccccc2)[nH]c1=O,u,x,x,x,0.7,
CCOc1cccc(C2NCc3ccccc3-n3cccc32)c1O (configuration not stated),-9,-36,6,6%,6.6,
CCC(C)NC(=O)c1ccc(C(=O)c2ccccc2)cc1 (configuration not stated),-5,x,3,5%,2.2,
COc1ccc(N2CCN(c3nc(Cl)nc(Nc4ccc(F)cc4)n3)CC2)cc1,-4,-24,-1,10%,-0.1,
Cc1cc(NC(=O)CCC(=O)N(Cc2ccco2)C2(C(=O)NC3CCCC3)CCC(C)CC2)no1 (configuration not stated),-9,x,x,x,0.0,
Cc1cc(C)c2nc(SCCC#N)nc(C)c2c1,1,-46,-8,0%,3.4,
Cn1cc(Cl)c(C(=O)NC2CCCCCC2)n1,-13,-5,7,-7%,-0.3,
CCN(CC)S(=O)(=O)c1cccc(NC(=O)CNc2cccc(S(=O)(=O)N3CCCC3)c2)c1,-18,x,x,x,0.6,
Cc1ccc(C(=O)OCC(=O)Nc2ncc(Cl)cc2Cl)cc1NC(=O)c1ccco1,-2,-11,1,-8%,1.8,
C=CCNC(=O)C1CCN(S(=O)(=O)c2ccc(Br)cc2)CC1,-10,-17,-5,-13%,-1.3,Arbovirus inh repeat=-17
O=C1CC2(CCN(S(=O)(=O)c3ccccc3F)CC2)Oc2ccccc21,-10,x,x,x,2.0,
COc1ccccc1N1CCN(C(c2ccccn2)c2nnnn2C2CCCCC2)CC1 (configuration not stated),-3,-10,7,2%,1.2,
C[C@@]12C(=O)N(Cc3ccc(-c4ccccc4)cc3)CC(=O)N1[C@H](/C=C/c1ccccc1)[C@@H]1C(=O)N(c3ccccc3)C(=O)[C@@H]12,-12,x,x,x,12,
CCn1c(COc2ccccc2)nc2ccccc21,2,-11,2,0%,1.8,
CCc1nn2c(=O)c(S(=O)(=O)Nc3cccc(F)c3)c(C)nc2s1,-1,x,x,x,-0.3,
CCOC(=O)C1=C(COC(=O)C2CC(=O)N(c3ccc(C)cc3)C2)NC(=O)NC1C (configuration not stated),-4,x,x,x,-0.4,

# Molecules from the list above with an aryl thioether with sulfur outside any ring, in the order listed:
SMILES,Mtb betalactam,YopH inh,Arbovirus inh,Mtb H37Rv,RecA intein inh,others
CCc1c(C)nc(SC/C=C/c2ccccc2)[nH]c1=O,u,x,x,x,0.7,
Cc1cc(C)c2nc(SCCC#N)nc(C)c2c1,1,-46,-8,0%,3.4,

# The main list resumes, starting 4 compounds before the break.
SMILES,Mtb betalactam,YopH inh,Arbovirus inh,Mtb H37Rv,RecA intein inh,others
C[C@@]12C(=O)N(Cc3ccc(-c4ccccc4)cc3)CC(=O)N1[C@H](/C=C/c1ccccc1)[C@@H]1C(=O)N(c3ccccc3)C(=O)[C@@H]12,-12,x,x,x,12,
CCn1c(COc2ccccc2)nc2ccccc21,2,-11,2,0%,1.8,
CCc1nn2c(=O)c(S(=O)(=O)Nc3cccc(F)c3)c(C)nc2s1,-1,x,x,x,-0.3,
CCOC(=O)C1=C(COC(=O)C2CC(=O)N(c3ccc(C)cc3)C2)NC(=O)NC1C (configuration not stated),-4,x,x,x,-0.4,
Cc1ccc(NS(=O)(=O)c2c(C)[nH]c(C)c2C(=O)N2CCCCC2)c(Cl)c1,-1,x,x,x,-0.2,
N/C(=N\O)c1cn(Cc2ccccc2Cl)c2ccccc12,13,x,x,x,10,
COC(=O)c1c(NC(=O)COC(=O)CNC(=O)c2ccco2)sc(C)c1C,5,-24,-5,-4%,-2.7,
O=S(=O)(NC1=NCCCCC1)c1ccc2ccccc2c1,-3,-31,6,1%,-2.3,
COc1ccc(CNC(=O)CN(C(=O)CCC(=O)Nc2ccccn2)c2cccc(C)c2)cc1,-7,x,6,-13%,-1.4,
CCOc1cccc(/C=N/NC(=O)c2cc(C3CC3)[nH]n2)c1O,6,x,x,x,-2.0,
O=C(O)CSc1nnc(COc2cccc3cccnc23)n1-c1cccc(C(F)(F)F)c1,4,x,5,1%,-3.3,
CCn1c(-c2cc(OC)c(OC)c(OC)c2)n[nH]c1=S,-3,96*,5,4%,-0.1,
CC1S/C(=N/N=C/c2ccco2)NC1=O (configuration not stated),15,-30,5,6%,-4.5,
Cc1ccc(S(=O)(=O)NC2=NCN(CCN3CCOCC3)CN2)cc1,2,-72,11,3%,0.2,
C=CCc1cc(C)ccc1OCCCC(C(=O)OCC)C(=O)OCC,99,-20,8,u,11,
CCc1ccc(NC(=O)c2ccccc2SC)cc1,96,x,0,59%,1.0,
COc1ccc(C(=O)NNC(=S)NC(=O)c2ccc(F)cc2)cc1Br,95,x,x,x,3.2,
NC(=O)C1CCN(C(=O)c2ccc3c(c2)S(=O)(=O)c2ccccc2C3=O)CC1,3,x,x,x,-5.6,
CCC[C@H]1COCCS(=O)(=O)N1Cc1ccccc1,6,x,x,x,2.0,
Cc1nn(C(=O)c2ccco2)c(C)c1Br,-16,7,6,-2%,-1.5,
COc1cccc(CN(C(=O)c2ccco2)C(C(=O)NC2CCCC2)c2cccnc2)c1 (configuration not stated),2,-38,3,0%,-1.1,
Cc1ccc(S(=O)(=O)N2CCC(=O)N(CCOCc3cccc(F)c3)CC2)cc1,-8,-14,-6,1%,-0.7,
CC(=O)NCCC(=O)N(C)CC1CCN(CCc2cccc(C(F)(F)F)c2)CC1,-2,x,x,x,-0.6,
O=c1c(N2CCOCC2)nsnc1N1CCOCC1,7,-14,9,4%,1.8,Arbovirus inh repeat=0
CCCC(=O)Nc1nn(C)c2nc3cc(C)ccc3cc12,-7,x,x,7%,-31,
CC(C)c1cccc(C(C)C)c1NC(=O)Cn1c(=O)cnc2ccccc21,8,2,2,10%,2.3,
CC(C)(C)c1[nH]nc2c1C(Cc1ccccc1)C(C#N)=C(N)O2 (configuration not stated),-7,-17,-3,2%,54*,
CC(C)CC1=NN2C(=N)/C(=C\c3coc4ccccc4c3=O)C(=O)N=C2S1,x,x,41*,7%,-9.0,
COc1ccc(C(=O)NC(NC(=O)c2ccc(OC)cc2)c2ccccc2F)cc1,-1,x,-5,4%,9.6,

# Pulled by structure from the list above (four):
SMILES,Mtb betalactam,YopH inh,Arbovirus inh,Mtb H37Rv,RecA intein inh,others
CC(C)CC1=NN2C(=N)/C(=C\c3coc4ccccc4c3=O)C(=O)N=C2S1,x,x,41*,7%,-9.0,
COC(=O)c1c(NC(=O)COC(=O)CNC(=O)c2ccco2)sc(C)c1C,5,-24,-5,-4%,-2.7,
CCc1ccc(NC(=O)c2ccccc2SC)cc1,96,x,0,59%,1.0,
Cc1ccc(NS(=O)(=O)c2c(C)[nH]c(C)c2C(=O)N2CCCCC2)c(Cl)c1,-1,x,x,x,-0.2,

# (next part)
SMILES,Mtb betalactam,YopH inh,Arbovirus inh,Mtb H37Rv,RecA intein inh,others
CCOc1ccc(S(=O)(=O)NCc2ccc3c(c2)OCO3)cc1NC(C)=O,0,x,x,x,-1.9,
CCN(CC)C(=O)C(C)N(C#N)c1nc(NC(C)C)nc(NC(C)C)n1 (configuration not stated),3,-30,11,0%,x,Arbovirus inh repeat=-6
Fc1ccccc1-n1cc(-c2ccccc2)[nH]c1=S,-8,x,-9,3%,1.1,
Cc1cccc(NC(=O)C2CCN(c3ncnc4c3nc3n4CCCCC3)CC2)n1,4,x,x,x,-2.3,
CC(C)Oc1cccc(C(=O)NC(=S)Nc2cccc(C(F)(F)F)c2)c1,8,9,16,15%,-1.4,
O=C(CSc1ncn[nH]1)N1CCOCC1,5,x,6,-5%,-1.5,
COc1ccc(CCNC(=O)C2CC(=O)N(c3ccc(C)cc3)C2)cc1 (configuration not stated),0,x,x,x,7.5,
CCCN(CCC)Cc1c(C(=O)N/N=C/c2ccncc2)nnn1-c1nonc1N,5,x,x,x,0.6,
CCN(CC)S(=O)(=O)c1ccc(OC)c(NC(=O)CSc2cc(Cl)ccc2Cl)c1,-1,-33,2,13%,4.7,
CC1(CC(=O)N/N=C/c2ccc(OCc3ccc(Cl)cc3Cl)cc2)OCCCO1,-2,-28,-16,3%,39*,
O=c1[nH]c2ccccc2nc1/C=C/c1ccccc1,0,x,-1,14%,-3.8,
CCOC(=O)c1ccc(N2C(=O)C3C(/C=C/c4ccccc4)OC4(C(=O)c5ccccc5C4=O)C3C2=O)cc1 (configuration not stated),1,-6,73*,-4%,-1.3,
CCOC(=O)c1ccc(NC(=O)CSc2nc3sc(C(=O)O)c(C)c3c(=O)[nH]2)cc1,-1,x,2,-1%,1.6,
COc1ccc(OC)c2[nH]c(=O)c(CCNC(=O)c3cccs3)cc12,10,x,-4,4%,4.0,
COc1ccc(N=Cc2cccc(C)c2O)cc1Cl,98,-19,-2,u,-2.1,
CC(C)=CCCC1=CCC(/C=N/NC(N)=O)C(C)C1 (configuration not stated),9,-40,16,14%,3.3,
CCCn1nc(C(=O)NCCN2CCOCC2)c2ccccc2c1=O,-7,-16,0,2%,-1.3,
S=C(c1ccc2c(c1)OCO2)N1CCCCCC1,2,-25,4,1%,-2.7,
COc1ccc(C(=O)N2CCCCC2)cc1S(=O)(=O)Nc1ccccc1,2,3,1,-1%,1.0,
COc1ccc(N2CCN(Cc3cc(=O)oc4cc(C)c(Cl)c(C)c34)CC2)cc1,1,-27,4,0%,-2.4,
COc1cccc(NC(=S)N(CCc2ccc(OC)c(OC)c2)Cc2ccccn2)c1,4,x,14,-8%,2.3,
Cc1ccc(OCC(O)CN2C(=O)NC(C)(C)C2=O)c(C)c1 (configuration not stated),1,x,3,-7%,-0.6,
Cc1ccc(NC(=O)CCc2nnc3ccc(NCc4ccco4)nn23)cc1,4,x,x,x,2.2,
CCCCC(C(=O)NC1CCCC1)N(Cc1ccccc1)C(=O)c1snc(C(N)=O)c1N (configuration not stated),2,x,x,x,0.8,
O=C(NCc1nc2ccccc2[nH]1)C1=C[C@H](c2ccc3c(c2)OCO3)C[C@H](OCCCCO)O1,5,x,2,-5%,-0.8,

# Next section.
SMILES,Mtb betalactam,YopH inh,Arbovirus inh,Mtb H37Rv,RecA intein inh,others
COc1ccc(C(=O)NC2CCN(C(=O)NC3CCCCC3)CC2)cc1,1,-49,5,-2%,1.0,
FC(F)(F)c1ccc(Oc2ccc3cc(Br)ccc3c2)nc1,9,-13,0,11%,3.2,
O=C(c1ccc(Br)cc1)N1CCN(c2ncccn2)CC1,2,x,x,x,-1.4,
O=C(NNC(=O)c1cc2ccccc2o1)c1ccc(Cl)cc1,3,x,x,-2%,-2.9,
CCOC(=O)C1CCN(C(=O)CC(NS(=O)(=O)c2ccc(OC)cc2)C(C)C)CC1 (configuration not stated),-11,-37,0,-5%,-2.4,
O=C(NCc1n[nH]c(=S)n1-c1ccc([N+](=O)[O-])cc1)c1ccc(S(=O)(=O)N2CCOCC2)cc1,8,x,1,-2%,1.5,
O=[N+]([O-])c1cc(/C=N/O)ccc1N1CCCC1,-3,x,0,4%,-2.2,
COCc1cc(C)c2c(N)c(C#N)sc2n1,4,-19,15,-6%,-3.9,
CCOc1ncccc1C(=O)N(C)CC(=O)Nc1ccc(F)cc1,-2,-16,-3,-4%,5.4,
Cc1noc(C)c1S(=O)(=O)N1CCC(C(=O)NCCN2CCC(C)CC2)CC1,-16,-2,0,8%,1.1,
CSc1ccccc1NC(=O)c1cc(-c2cccs2)on1,2,-1,-8,7%,-0.3,
O=C(CN1CCN(c2ccccn2)CC1)Nc1ccccc1,1,1,2,-2%,0.6,
Cc1c(C(=O)O)cccc1-c1ccc(C=O)o1,3,-17,-8,2%,-1.0,
O=C(CCSCCC(=O)NCc1ccccc1)NCc1ccccc1,-3,-12,2,-7%,0.6,
COC(=O)C1=NNC2C(=O)N(c3ccc(C)cc3)C(=O)C12 (configuration not stated),-3,x,0,-8%,-5.5,
CS(=O)(=O)N(CC(=O)NCCSCc1ccccc1)c1ccccc1F,1,x,x,x,1.9,
